# Compound activity as filed in PubChem BioAssay.
# Arbovirus anti – arbovirus infection inhibition. arbovirus infection cell-based antiviral screen. inhibition, % at 10 µM. 0.37% of 200,000 active. AID 1251;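 active = inhibition from about 30%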;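 note: bluetongue infection of BSR cells; cell survival read as ATP light after 72 h; 0% = infected wells without compound and 100% = uninfected wells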
# YopH PTP inh – blocks Yersinia enterocolitica YopH tyrosine phosphatase | AID 898 | fluorescence Ex485/Em525 | inhibition, %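 (about 10 µM by stock and volumes)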 | 0.16% of 140,000 active;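 active = inhibition of 50% or more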;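 note: controls were vehicle for no effect and minimum signal wells for full effect; inactives centre near -20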
# Mtb betalactam – beta-lactam sensitization of Mtb H37Rv | M. tuberculosis H37Rv growth with meropenem, percent inhibition; hits of this screen are not shown here | inhibition, % at 25 µM | 0.27% of 330,000 active;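 active = about 74% or more and at least 40 points above the plate without the antibiotic, then above 30% in a dose series; inconclusive = first-round hits that could not be retested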;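 note: growth measured after seven days incubation then overnight dye step; 0% = bacteria only wells and 100% = bacteria with antibiotic; twin plates without the antibiotic show which effects depend on it; some results filed as inactive read as strong as hits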
# RecA splice inh – inhibitors of M. tuberculosis RecA intein splicing; inhibition, %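 (about 9 µM by stock and volumes)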; 0.75% of 290,000 active; AID 2221; P9WHJ3; cell-free RecA intein splicing, fluorescence; in the data active = inhibition above about 30%; inconclusive = no clear call, values can overlap the other calls;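 note: 0% = vehicle wells and 100% = reference inhibitor control wells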
# Target sequence (P9WHJ3 whole entry, looked up, canonical isoform): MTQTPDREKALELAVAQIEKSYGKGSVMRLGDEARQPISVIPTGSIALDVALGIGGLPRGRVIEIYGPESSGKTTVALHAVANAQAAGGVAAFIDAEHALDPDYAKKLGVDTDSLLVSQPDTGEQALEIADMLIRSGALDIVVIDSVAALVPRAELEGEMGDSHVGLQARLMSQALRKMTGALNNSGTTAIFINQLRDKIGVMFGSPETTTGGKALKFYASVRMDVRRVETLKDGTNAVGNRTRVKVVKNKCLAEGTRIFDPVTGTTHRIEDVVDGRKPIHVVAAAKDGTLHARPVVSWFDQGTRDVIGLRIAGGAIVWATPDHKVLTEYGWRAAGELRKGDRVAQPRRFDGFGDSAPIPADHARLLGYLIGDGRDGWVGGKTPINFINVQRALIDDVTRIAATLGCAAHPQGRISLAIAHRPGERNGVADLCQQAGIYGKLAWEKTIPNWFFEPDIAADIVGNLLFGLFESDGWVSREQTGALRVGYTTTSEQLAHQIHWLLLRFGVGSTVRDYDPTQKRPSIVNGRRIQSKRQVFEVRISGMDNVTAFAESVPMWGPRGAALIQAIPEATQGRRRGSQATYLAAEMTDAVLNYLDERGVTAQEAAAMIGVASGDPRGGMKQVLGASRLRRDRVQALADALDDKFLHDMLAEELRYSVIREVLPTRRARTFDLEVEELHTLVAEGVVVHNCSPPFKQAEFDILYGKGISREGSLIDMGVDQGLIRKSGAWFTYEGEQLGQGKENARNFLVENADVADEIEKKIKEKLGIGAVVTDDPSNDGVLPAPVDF
# Mtb H37Rv – M. tuberculosis H37Rv growth inhibitors, H37Rv strain (AID 1626); M. tuberculosis H37Rv growth inhibition; higher % means a stronger effect; one-dose inhibition, % at 10 µM; IC50 in µM for titrated hits; 0.95% of 220,000 active;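 active = confirmed in a dose series; inconclusive = inhibition above 80% but not taken into the dose series; inactive = below 80% or under 30% at every dose of the series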;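 note: bacteria incubated seven days before Alamar blue readout; 0% = bacteria only wells and 100% = bacteria with antibiotic wells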
# Arbovirus anti repeat – also measured in Arbovirus anti; calls as there; inhibition, %; measured here: 10K subset replicate screen; many hits read low in the repeat;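 first of two repeat runs on a subset; 0% = infected and 100% = uninfected wells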
# An asterisk follows results filed as active; u = inconclusive; x = not tested or not shown; & = joins results of further samples. This is a subset; rates above refer to the full screens.
SMILES,Arbovirus anti,YopH PTP inh,Mtb betalactam,RecA splice inh,Mtb H37Rv,others
COc1cccc(-c2cc(C(F)(F)F)nc(NCc3ccco3)n2)c1,12,-36,u,-6.2,1%,Arbovirus anti repeat=5
Cc1nnc(SCC(=O)N(C)CC(=O)Nc2ccccc2Cl)s1,x,x,1,-0.2,x,
CC1(C)Cc2nc3scc(NC(=O)c4ccccc4)c3cc2CO1,x,x,-2,0.0,-10%,
Cn1ncc(N=Cc2c(O)ccc3ccccc23)c1C(=O)N1CCOCC1,x,-11,-6,-0.3,-8%,
Cc1c(C(=O)N2CCOCC2)[nH]c2c1C(=O)CC(c1ccc(Cl)cc1)C2 (stereo not drawn),10,10,-4,-0.9,10%,
O=C(NNC(=O)C12CC3CC(CC(C3)C1)C2)c1ccco1,-3,x,-8,-2.2,-11%,
O=C(O)c1cc(-c2cccnc2)nc2ccc(Br)cc12,1,x,8,-1.0,-8%,
Nc1nonc1-n1nnc(C(=O)N/N=C/c2ccc(OCc3ccccc3)cc2)c1CNc1ccccc1,x,x,2,-0.8,x,
O=C(NCCc1ccccc1)C1CCN(S(=O)(=O)N2CCCCC2)CC1,x,x,6,-4.2,x,
CCOc1ccc(CCNC(=O)COC(=O)CSc2ccccc2C)cc1OCC,x,x,-4,3.2,x,
CC(C)=CCCC(C)CN(C)CCc1ccccn1 (stereo not drawn),1,-16,-4,-1.9,2%,
[O-][n+]1c2ccc3nonc3c2nn1-c1ccccc1Cl,1,-38,-2,-1.0,x,
COc1ccc(CCNC(=O)CSc2nnc(CNC(=O)c3c(F)cccc3Cl)o2)cc1OC,x,x,2,-8.9,x,
COc1cc(-c2cc(C(=O)Nc3c(Cl)cc(Cl)cc3Cl)c3ccccc3n2)cc(OC)c1OC,-21,-33,5,-9.0,3%,
COc1ccc(CC(=O)N/N=C(\C)c2cccs2)cc1OC,x,x,-4,-1.6,x,
COc1ccccc1NC=C1C(=O)OC2(CCCCC2)OC1=O,1,-39,1,0.3,-7%,
CC(C)CCCC(C)NS(=O)(=O)Cc1ccccc1 (stereo not drawn),27,-5,1,-0.4,-3%,
Cc1nn(Cc2c(F)c(F)c(F)c(F)c2F)c(C)c1NC(=O)c1c([N+](=O)[O-])c(C)nn1C,1,-28,5,5.8,6%,
CCOc1ccccc1-c1cc(C(=O)N/N=C/c2cccnc2)c2ccccc2n1,x,x,-6,-2.6,x,
CCOc1ccc(C(C)=O)cc1COC(=O)C1=COCCO1,-1,-1,47,-1.0,-4%,

# A run of entries taken from the entries so far, for reference:
SMILES,Arbovirus anti,YopH PTP inh,Mtb betalactam,RecA splice inh,Mtb H37Rv,others
CC(C)CCCC(C)NS(=O)(=O)Cc1ccccc1 (stereo not drawn),27,-5,1,-0.4,-3%,
Cc1nn(Cc2c(F)c(F)c(F)c(F)c2F)c(C)c1NC(=O)c1c([N+](=O)[O-])c(C)nn1C,1,-28,5,5.8,6%,
CCOc1ccccc1-c1cc(C(=O)N/N=C/c2cccnc2)c2ccccc2n1,x,x,-6,-2.6,x,
CCOc1ccc(C(C)=O)cc1COC(=O)C1=COCCO1,-1,-1,47,-1.0,-4%,

# Next part
SMILES,Arbovirus anti,YopH PTP inh,Mtb betalactam,RecA splice inh,Mtb H37Rv,others
Cc1ccc(-n2nnnc2-c2ccco2)cc1,13,-14,-14,x,3%,
O=C(N/N=C/C=C\c1ccc([N+](=O)[O-])cc1)c1cccnc1,x,x,-1,-0.4,-16%,
NC1=NC[C@H](Cc2ccc(O)cc2)N1CCc1cc(C(F)(F)F)cc(C(F)(F)F)c1,x,x,-8,2.5,7%,
CCCCn1c(O)c(/C=C2\C=Nc3ccccc32)c(=O)[nH]c1=O,x,x,8,1.2,x,
COCCNC(=O)C(=O)N/N=C/c1ccccc1C(F)(F)F,2,-10,-9,0.9,6%,
O=C(Nc1ccccc1O)c1cc(S(=O)(=O)N2CCOCC2)c(Cl)cc1Cl,4,-17,-2,0.9,4%,
O=C(Cn1cnc2ccccc21)Nc1cccc([N+](=O)[O-])c1,17,x,-1,0.0,1%,
COc1cc2cc(-c3ccc(O)cc3O)nc(C)c2cc1OC,x,x,3,-4.8,x,
COCCCNC(=O)C(Cc1ccccc1)NS(=O)(=O)c1ccc2c(c1)c(=O)n(C)c(=O)n2C (stereo not drawn),-2,-26,x,-0.7,-7%,
Cc1ccc(S(=O)(=O)N(C)C)cc1NC(=O)C(C)OC(=O)c1ccc2c(c1)OCCO2 (stereo not drawn),x,x,-5,-2.2,16%,
O=C(Nc1cccnc1Cl)c1noc2c1CCc1ccccc1-2,4,x,-7,-1.0,-1%,
Cc1cc(C)c2c(n1)SCC(=O)N2CC(=O)Nc1ccc(C)c(C)c1,x,x,90,-0.2,x,
COc1ccc(C(=O)N/N=C/c2ccc(OC)c(CN3CCCc4ccccc43)c2)cc1,2,-25,7,5.4,7%,
OCCCn1c(C2CCCN2c2nc(-c3ccc(F)cc3)cs2)nc2cc(Cl)c(Cl)cc21 (stereo not drawn),x,x,96,7.4,54%,
CC(OC(=O)Cn1cnc2c1c(=O)n(C)c(=O)n2C)C(=O)c1ccccc1 (stereo not drawn),x,x,-8,1.4,x,
CC(=O)c1ccc(C(=O)NC2CCCN(Cc3ccccc3F)C2)cc1 (stereo not drawn),x,x,-5,-2.4,x,
CC(=O)N1Cc2ccccc2CC1C(=O)O (stereo not drawn),11,-27,-5,4.4,-2%,
O=C(O)c1ccc(OCc2occc2C(=O)O)cc1,4,-37,0,-3.6,0%,
O=C(NCc1ccccn1)Nc1cccc(Cl)c1Cl,x,x,-4,0.8,x,
Cc1ccc(C)c(S(=O)(=O)N2CCN(C(=O)Cc3c(F)cccc3Cl)CC2)c1,x,x,4,2.8,x,
O=c1cc(C2CCNCC2)[nH][nH]1,0,-32,-11,87*,-3%,
COc1cccc(C(=O)NC2CC3CCCC(C2)N3S(=O)(=O)c2ccccc2)c1 (stereo not drawn),x,x,6,0.3,x,
CCN(CC)S(=O)(=O)c1ccc(Cl)c(NC(=O)COc2ccccc2[N+](=O)[O-])c1,2,-25,2,3.5,-4%,
Cc1cc(Cl)ccc1C(=O)C1CCCN(C(=O)CCn2cnnn2)C1 (stereo not drawn),1,x,-4,-0.6,7%,
Cc1ccccc1Nc1nn2c(=O)c3ccccc3nc2s1,6,-44,2,1.5,-3%,
Cc1ccccc1NC(=O)Cc1nc(CSc2nnc(-c3ccc4c(c3)OCO4)o2)cs1,-9,7,67,-1.3,-10%,
CN(C)C(=O)c1nc2ccc(Cl)cn2c1CN1CCN(c2ncccn2)CC1,8,x,-3,1.0,6%,
O=C(NNC(=O)c1ccc(Cl)cc1Cl)c1ccncc1,-1,-31,5,0.1,0%,
CN(C)c1ccc(C(=O)N/N=C/c2ccccn2)cc1,x,x,84,0.1,x,
COC(=O)C1=CN(Cc2cccs2)C=C(C(=O)OC)C1c1cccc(OC)c1OC,2,-50,6,-10,5%,
COc1ccc(CNC(=O)c2c(F)c(F)c(F)c(F)c2F)cc1,0,-26,12,1.0,12%,
COCC(C)OC(=O)/C(C#N)=C\c1coc2ccc(C)cc2c1=O (stereo not drawn),-8,-25,-2,x,11%,
Cc1cc(=O)[nH]c(N/N=C/c2ccc(-c3ccc(F)cc3)o2)n1,x,x,91,-5.3,x,
CCN(C(=O)Cn1nc(C)n2c(cc3cc(C)ccc32)c1=O)c1ccccc1,x,x,5,2.6,x,
O=C(Nc1cc(C(F)(F)F)ccc1Cl)C(NCc1ccccc1)c1ccccc1 (stereo not drawn),10,-22,5,4.1,8%,
N#C/C(C(=O)NCc1ccccc1)=C1/SC(Cc2ccc(Cl)cc2)C(=O)N1c1ccccc1 (stereo not drawn),1,-21,-3,-1.8,-10%,
COc1ccc(OC)c(NC(=O)Cn2c(=O)n(CC3CCCO3)c(=O)c3cc(OC)c(OC)cc32)c1 (stereo not drawn),x,x,-7,-0.2,x,
CCC12CN3CCN(CC(C3)/C1=N/NC(N)=O)C2,4,x,-9,-1.1,1%,
O=C(CSc1nc2[nH]ncc2c(=O)[nH]1)Nc1ccc(Cl)c(Cl)c1,x,x,-2,0.6,x,
O=C(COc1ccc(Cl)cc1)N1CCN(c2ncccn2)CC1,8,-4,-8,x,-2%,
Cc1ccc(-c2nc3cc(N)ccc3o2)c(C)c1,-10,-30,52,-3.1,9%,
CCSc1nc(=O)n(-c2ccccc2)c(C)c1C(C)=O,5,-41,14,1.3,-1%,
O=C(CCc1nnc2ccc(NCc3ccc(Cl)cc3)nn12)NC1CCCCC1,x,x,u,0.8,x,
CC1=CC(C)C2C(=O)N(CCC[N+](C)(C)C)C(=O)C2C1 (stereo not drawn),-4,-15,1,1.6,-8%,
Cc1c(C(=O)NCCc2ccccc2)oc2ccc(S(=O)(=O)N3CCC4(CC3)OCCO4)cc12,-5,-9,7,3.6,7%,
C=CCn1c(SCC(=O)NCC(=O)OCC)nnc1-c1ccccn1,0,-42,3,4.4,-1%,
CN(C)C(=O)Oc1cccc([N+](C)(C)C)c1,1&2,-35&-44,2&-2,0.1&-0.2,-7%,
N#Cc1cnn2cc(-c3ncc(C(F)(F)F)cc3Cl)cnc12,-4,-38,0,-0.8,6%,
CCc1ccccc1NS(=O)(=O)Cc1ccccc1,x,x,-2,-3.6,x,
CCc1ccc(NC(=O)c2ccc3c(c2)C(=O)N(Cc2ccco2)C3=O)cc1,-1,12,-11,3.5,-9%,Arbovirus anti repeat=2
# The listing continues:
SMILES,Arbovirus anti,YopH PTP inh,Mtb betalactam,RecA splice inh,Mtb H37Rv,others
COc1cccc(/C=C2/SC(=S)N(CCC(=O)N3CCOCC3)C2=O)c1,x,x,5,4.0,x,
Cc1ccc(CSCC(N)C(=O)O)cc1 (stereo not drawn),-6,-19,-3,2.0,-11%,
COc1ccc(NC(=O)COCC(=O)Nc2ccc(C)cc2)cc1,x,x,90,-2.1,x,
C=CCN(Cc1nc(-c2ccc(OC)c(OC)c2)oc1C)C1CCS(=O)(=O)C1 (stereo not drawn),4,x,4,-1.9,7%,
COc1ccc(OC)c(N(CC(=O)N2CCCCC2)S(=O)(=O)c2ccc(OC)c(OC)c2)c1,-1,-6,-4,0.3,3%,
[O-]/C(=C(\C(=S)Nc1ccc(SC(F)F)cc1)[n+]1ccccc1)c1cc(Cl)ccc1Cl,0,x,15,5.9,12%,
CC(=O)Nc1ccc(OCC(=O)NCc2ccccc2)cc1,2,x,-6,-2.9,3%,
O=C(COc1cccc(NC(=O)c2ccccc2)c1)c1ccc(F)cc1,-5,-43,-2,0.8,1%,
Cc1ccc(NC(=S)NCCc2ccc(S(N)(=O)=O)cc2)c(C)c1,x,-40,-8,-0.2,1%,
O=C(c1ccc(=O)[nH]c1)N(Cc1ccco1)C1(C(=O)NC2CCCCC2)CCCCC1,2,-36,2,-5.2,x,Arbovirus anti repeat=6
NC(=O)C1CCN(C(=O)CSc2nc3c(c(-c4ccccc4)n2)CCCC3)CC1,-9,-30,-4,-2.3,6%,
Oc1ccc(Cl)cc1N=Cc1sc2ccccc2c1Cl,14,x,96,18,6.5µM*,
COc1ccc(C(=O)CCN2CCN(c3ccc(OC)cc3)CC2)cc1,x,x,97,0.0,x,
O=C(CSc1nnc2ccc(-c3ccncc3)nn12)c1cccs1,1,x,3,1.2,0%,
CCOc1cnc(C(=O)NNC(=O)C(Br)C(C)C)o1 (stereo not drawn),2,x,-8,0.0,2%,
COc1ccc(-c2noc3c2-c2nc(C(C)C)sc2CC3)cc1,x,x,45,11,10%,
CCOc1ccc(N(CC(=O)NC(C)(C)C)C(=O)CCC(=O)Nc2nccs2)cc1,x,x,1,-1.3,x,
NC(=S)Nc1cccc2[nH]ncc12,4,x,0,3.8,3%,
Cc1nnc(NC(=O)c2cccc(S(=O)(=O)N3CCCC3)c2)s1,x,x,0,0.3,x,
CCC(=O)Nc1ccccc1C(=O)C(=O)Nc1ccccc1,2,-15,-2,0.1,12%,
CC(Nc1cc(N2CCN(S(C)(=O)=O)CC2)ccc1[N+](=O)[O-])c1ccccc1 (stereo not drawn),-5,-25,-7,-0.3,15%,
Cc1cc(SCC(=O)Nc2ccc(O)cc2)n2ncc(-c3ccccc3)c2n1,x,x,4,-8.8,0%,
COc1ccc(C)cc1NC(=O)CSc1nnc(-c2ccco2)n1Cc1ccco1,12,-29,-25,1.5,-1%,Arbovirus anti repeat=4
CC(C)=CCc1cc([C@@H]2COc3c(ccc4c3C=CC(C)(C)O4)C2)c(O)cc1O,x,x,-1,-0.6,8%,
COC(=O)c1ccccc1NC(=O)c1cc(-c2ccco2)on1,x,x,-4,0.7,x,
CC(C)(C)C(=O)C1=C(O)C(=O)N(Cc2ccccc2)C1c1ccccc1Cl (stereo not drawn),x,x,1,-2.2,x,
Cn1cc(CN2CCCC(CO)C2)c(-c2ccc(Oc3ccccc3)cc2)n1 (stereo not drawn),-31,x,-1,3.7,2%,
